Ecoli growth – E. coli growth inhibition. Escherichia coli growth, OD600, 23 h; hits give low values. OD600 absorbance (concentration not given with the values). 330,000 tested, 0.21% active. AID 1053175;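 active = OD600 absorbance below the run mean of sample wells minus 3.6 SD, in any replicate, cut at about 0.56 in these data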;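 also: stock transfer was 300 nL into about 60 µL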
Ecoli rRNA inh – inhibitors of bacterial rRNA selective over humanized ribosomes | E. coli WT GFP vs humanized-ribosome RFP mutants, fluorescence, 24 h; hits give low values; DMSO median 0, no signal -100 | GFP signal change (wild-type ribosome), % (concentration not given with the values) | 350,000 tested, 1.6% active;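 active = significant combined selectivity score with lowered wild-type GFP, culture density cut under 30%, mutant RFP and density less affected; inactive = any of these conditions unmet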; also: one replicate is shown; some compounds called inactive have numbers as strong as hits
AF4-AF9 inh – inhibitors of human MLL-AF4/AF9 interaction | P42568 | AlphaScreen, biotin-AF4 peptide binding to FLAG-AF9 | inhibition, % at 10 µM | 350,000 tested, 0.47% active | AID 651704;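 active = every replicate reaching a set inhibition limit, whatever the replicate mean, cut at about 25% in these data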;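 also: 0% = plate neutral control median and 100% = total signal loss; the record names both 10 and 1 µM as test concentration; the first replicate is given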
Target sequence (P42568 whole entry, looked up): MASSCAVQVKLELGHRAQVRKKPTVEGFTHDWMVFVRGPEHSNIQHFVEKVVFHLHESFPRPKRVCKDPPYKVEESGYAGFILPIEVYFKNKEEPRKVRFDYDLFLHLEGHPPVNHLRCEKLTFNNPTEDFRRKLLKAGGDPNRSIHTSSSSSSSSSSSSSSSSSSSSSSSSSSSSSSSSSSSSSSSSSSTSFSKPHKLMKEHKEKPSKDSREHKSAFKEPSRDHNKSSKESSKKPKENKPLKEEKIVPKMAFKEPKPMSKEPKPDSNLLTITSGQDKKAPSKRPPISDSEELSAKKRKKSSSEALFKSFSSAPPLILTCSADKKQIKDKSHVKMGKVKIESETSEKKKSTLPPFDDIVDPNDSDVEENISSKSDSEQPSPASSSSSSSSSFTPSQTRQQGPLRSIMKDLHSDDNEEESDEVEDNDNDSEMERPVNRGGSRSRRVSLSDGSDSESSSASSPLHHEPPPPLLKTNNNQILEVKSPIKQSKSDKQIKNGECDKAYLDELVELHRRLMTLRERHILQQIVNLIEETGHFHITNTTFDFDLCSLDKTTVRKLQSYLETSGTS
FGF22 binding – shifts melting point of recombinant human FGF22; Q9HCT0; recombinant FGF22 thermal shift, SYPRO orange fluorescence; percent of sucrose octasulfate shift, DMSO zero; calls only at 9.99 µM; 340,000 tested, 1.5% active; AID 651658;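 active = melting point raised past a set limit in the mean and every replicate; three in four hits are not shown here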
Target sequence (Q9HCT0 whole entry, looked up): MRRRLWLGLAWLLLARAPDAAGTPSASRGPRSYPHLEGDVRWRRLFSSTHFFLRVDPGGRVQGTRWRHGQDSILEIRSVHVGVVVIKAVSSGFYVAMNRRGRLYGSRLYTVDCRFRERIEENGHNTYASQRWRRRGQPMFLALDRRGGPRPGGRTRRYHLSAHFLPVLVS
UCH37 inh – inhibitors of human deubiquitinating enzyme UCH37; inhibition, % (no concentration beside the values); AID 588478; purified proteasome/UCH37, Ub-AMC cleavage fluorescence; Q9Y5K5; 330,000 tested, 0.33% active;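 active = mean of two replicates above 20%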;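 also: 0% = compound-free wells with enzyme and 100% = wells lacking proteasome; stock transfer was 100 nL into about 20 µL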
Target sequence (Q9Y5K5 whole entry, looked up): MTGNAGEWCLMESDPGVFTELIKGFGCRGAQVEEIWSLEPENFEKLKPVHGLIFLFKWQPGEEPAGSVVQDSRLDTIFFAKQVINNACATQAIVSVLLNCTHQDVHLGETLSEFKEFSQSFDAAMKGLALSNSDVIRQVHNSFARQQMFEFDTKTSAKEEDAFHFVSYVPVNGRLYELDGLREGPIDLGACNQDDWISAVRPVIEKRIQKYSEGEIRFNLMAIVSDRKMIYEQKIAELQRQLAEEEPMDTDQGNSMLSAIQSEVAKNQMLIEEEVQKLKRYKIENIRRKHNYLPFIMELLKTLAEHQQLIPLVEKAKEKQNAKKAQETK
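assay system = human UCH37 enzyme supplied as purified proteasome complex | amount = proteasome at 0.15 nM in the dispensed enzyme solution | schedule = 30 min compound-proteasome preincubation then 25 min substrate reaction, room temperature | measured by = fluorescence, ex 355 nm, em 460 nm | benchmarks = no-proteasome wells (full inhibition) and compound-free wells (no inhibition)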
Beta cell apopt – beta cell apoptosis inhibition | protection from apoptosis, % (concentration not given with the values) | AID 435005 | 300,000 tested, 0.8% active | INS-1E cytokine-induced death, ATP luminescence, 48 h; percent of positive-control rescue, neutral wells zero;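 active = all replicates at 75% or more, or half of them and the mean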;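 also: 0% = cytokine-treated negative control wells and 100% = positive control rescue; higher means more ATP so stronger rescue from cytokine killing; wells of about 40 µL received 100 nL stock; the first replicate is given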
T cruzi repl – T. cruzi replication inhibition; T. cruzi beta-gal in NIH3T3, luminescence, 90 h; inhibition, % (no concentration beside the values); 300,000 tested, 1.4% active; AID 1885;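 active = mean inhibition across valid replicates above about 55%, limit read from the data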;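 also: signal also drops with host cell toxicity which is not excluded here; 0% = plate median of DMSO wells and 100% = zero luminescence signal; higher percent means less beta-gal luminescence so fewer parasites; stock transfer was 50 nL into about 50 µL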
Bfl-1 A1 inh – inhibitors of the anti-apoptotic protein A1, read as caspase activation. MEF A1-2A-BIM cells, Caspase-Glo 3/7 luminescence, 3 h; percent of clofoctol response, vehicle zero. 330,000 tested, 0.066% active. caspase activation, % (no concentration beside the values);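 active = over half of replicate activation scores above 10%, or exactly half above 10 with the replicate mean above 10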;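 also: wells of about 30 µL received 50 nL stock; many hits fall short of the cut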
Ecoli rRNA inh OD600 – recorded beside Ecoli rRNA inh, whose call it bears; OD600 change, %; measured here: OD600 growth;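 optical density of the mix in the first replicate; 0 = DMSO median and -100 = no signal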
Ecoli rRNA inh RFP – recorded beside Ecoli rRNA inh, whose call it bears; RFP signal change, %; measured here: RFP humanized mutant strains;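 first replicate; 0 = DMSO median and -100 = no signal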
* = called active by the depositor; i = inactive; . = no result given; & = joins results of further samples. Some of the compounds tested (hit frequency here may not be typical).

SMILES	Ecoli growth	Ecoli rRNA inh	Ecoli rRNA inh OD600	Ecoli rRNA inh RFP	AF4-AF9 inh	FGF22 binding	UCH37 inh	Beta cell apopt	T cruzi repl	Bfl-1 A1 inh
CS(=O)(=O)Nc1ccc(C2=NN(S(C)(=O)=O)C(c3ccc4nccnc4c3)C2)cc1 (centres undefined)	0.68	9	3	-1.7	1.8	i	5.8	1	-11	0.2
CCOc1cc(C(=O)O)ccc1OCCOc1ccccc1	0.71	-2	-10	-0.5	-1.8	i	-0.8	.	3	0.1
COc1ccc(NS(=O)(=O)c2ccc(S(=O)(=O)N3CCCC3)cc2)cc1Cl	0.68	-2	-21	-0.8	.	.	3.0	0	-10	0.6
C/C(=N\NC(N)=S)C1(C)CCCCC1	.	-9	-7	1.7	-6.8	i	.	-7	33	-0.2
CN(C)/C=C/c1onc(-c2c(Cl)cccc2Cl)c1C#N	0.74	.	.	.	.	.	6.3	8	-3	0.9
CC1CCCCN1C(=O)CCS(=O)(=O)Cc1ccccc1 (centres undefined)	0.7	8	10	-1.2	0.6	i	0.7	12	0	-0.4
CCN1CCN(Cc2ccc(NC(=O)c3ccc(C)c(NC(=O)c4c[nH]c5cc(C(F)(F)F)ccc5c4=O)c3)cc2C(F)(F)F)CC1	0.65	3&7	25&9	-3.7&1.2	2.2&2.2	i	4.1	99*	46	-0.9
S=c1[nH]nc(NCCCN2CCOCC2)s1	0.67	11	6	-2.9	-2.4	i	3.5	0	-6	1.8
Cc1ccc(C(=O)NC(C)C2CC3CCC2C3)cc1 (centres undefined)	0.63	13	8	2.9	-4.1	i	3.8	2	-12	-0.5
COC(=O)c1ccc(C(C(=O)NC2CCCCC2)N(CCc2ccccc2)C(=O)Cc2cccs2)cc1 (centres undefined)	0.74	.	.	.	.	.	3.3	-1	1	0.4
C=CCn1c(SCC(=O)Nc2cccc(C)c2)nnc1-c1cnccn1	0.73	.	.	.	.	.	1.8	0	3	0.0
COc1ccccc1CNC(=O)/C=C/c1ccc(S(=O)(=O)N2CCOCC2)cc1	0.66	-6	-14	-14	-0.3	i	4.0	0	11	-1.5
CCOC(=O)CSc1nc(C)c(CC)c(C)c1C(N)=O	0.71	8	-4	1.6	0.2	i	2.9	-2	-8	0.0
CC(C1CC1)N(Cc1ccccc1)C(=O)NC(=O)c1cccc(F)c1 (centres undefined)	0.69	-1	-7	-3.1	0.2	i	1.4	-3	-9	0.5
O=C(Nc1cccc(F)c1)C1CCN(c2nnnn2-c2ccccc2)CC1	0.65	.	.	.	.	.	3.3	3	-3	0.0

Two entries drawn at random from those above:
SMILES	Ecoli growth	Ecoli rRNA inh	Ecoli rRNA inh OD600	Ecoli rRNA inh RFP	AF4-AF9 inh	FGF22 binding	UCH37 inh	Beta cell apopt	T cruzi repl	Bfl-1 A1 inh
CCOc1cc(C(=O)O)ccc1OCCOc1ccccc1	0.71	-2	-10	-0.5	-1.8	i	-0.8	.	3	0.1
Cc1ccc(C(=O)NC(C)C2CC3CCC2C3)cc1 (centres undefined)	0.63	13	8	2.9	-4.1	i	3.8	2	-12	-0.5

In the list so far, these have a Cl atom:
SMILES	Ecoli growth	Ecoli rRNA inh	Ecoli rRNA inh OD600	Ecoli rRNA inh RFP	AF4-AF9 inh	FGF22 binding	UCH37 inh	Beta cell apopt	T cruzi repl	Bfl-1 A1 inh
COc1ccc(NS(=O)(=O)c2ccc(S(=O)(=O)N3CCCC3)cc2)cc1Cl	0.68	-2	-21	-0.8	.	.	3.0	0	-10	0.6
CN(C)/C=C/c1onc(-c2c(Cl)cccc2Cl)c1C#N	0.74	.	.	.	.	.	6.3	8	-3	0.9

The results go on.
SMILES	Ecoli growth	Ecoli rRNA inh	Ecoli rRNA inh OD600	Ecoli rRNA inh RFP	AF4-AF9 inh	FGF22 binding	UCH37 inh	Beta cell apopt	T cruzi repl	Bfl-1 A1 inh
N/C(COc1cccc(C(F)(F)F)c1)=N\NC(=O)c1cccnc1Oc1ccccc1	0.71	.	.	.	.	.	3.3	-1	7	0.1
O=C(NC(=S)NNC(=O)c1ccco1)c1ccc(F)cc1	0.56	-50	-78	-18	1.1	i	8.8	9	-20	-0.4
Cc1ccc(CNS(=O)(=O)c2c(C)[nH]c(C)c2C(=O)N2CCCCC2)cc1	0.72	1	-2	-2.7	1.6	i	2.3	-4	-5	0.7
CCOc1ccc(N2CC(C(=O)Nc3ccc(S(=O)(=O)N4CCCC4)cc3)CC2=O)cc1 (centres undefined)	0.7	2	6	-0.4	2.1	i	-0.2	1	1	-0.9
COC(=O)c1ccccc1NC(=O)CCC(=O)N1CC(C)Oc2ccc(C)cc21 (centres undefined)	0.77	-11	-43	1.9	-2.9	i	-1.1	-3	9	0.0
Clc1cccc(/C=N/Nc2nnc(Cl)c3ccccc23)c1	.	3	2	2.1	1.2	i	.	3	9	-2.0
COC(C(=O)Nc1ccnn1C1CCN(Cc2cnn(C(C)C)c2)CC1)c1ccccc1 (centres undefined)	0.7	10	13	2.0	1.9	i	1.5	-11	-6	0.2
Cc1oc(-c2cccc(Cl)c2)nc1CN1CCC(C(=O)NCCCN2CCCC2=O)CC1	0.78	3	4	1.8	0.0	i	1.4	-5	-11	0.3
COc1ccc2c(c1)c1ncn(Cc3ccc(F)cc3)c(=O)c1n2C	0.7	5	17	-2.5	-1.8	i	-62	-7	0	1.3
CCOc1ccccc1N1CCN(S(=O)(=O)c2cc(C)ccc2OC)CC1	0.73	-23	-38	-3.2	2.4	i	0.8	-6	12	-0.4
Cn1cc(Br)c(C(=O)N/N=C/c2cccc(OC3CSC3)c2)n1	.	-2	-14	-5.0	-1.4	i	.	4	10	-1.1
CCOc1cc(NC(=S)Nc2ccccc2)c(OCC)cc1NC(=O)c1ccccc1	0.73	.	.	.	.	.	-8.4	5	30	1.0
COC(=O)c1cc2c(C)[nH]c(C)c2cc(C(=O)OC)c1=O	0.67	.	.	.	-1.1	i	12	-5	-8	0.4
Nc1c(N(Cc2ccco2)C(=O)COc2ccccc2)c(=O)[nH]c(=O)n1Cc1ccccc1	0.72	-2	-4	0.9	-0.5	i	3.0	0	.	-0.9
Cc1cc(O)c(Sc2ncn[nH]2)cc1NS(=O)(=O)c1ccc(Cl)cc1	0.69	-1	3	8.0	0.3	i	3.1	-6	.	-0.4
Cn1cc(S(=O)(=O)Nc2ccc(Br)cc2F)c(=O)n(C)c1=O	0.66	-2	-2	-1.3	-1.6	i	-1.2	-1	4	-0.4
Cc1ccccc1N1CC(c2nc3ccccc3[nH]2)CC1=O (centres undefined)	0.69	.	.	.	.	.	6.3	-6	-2	1.5
CN(C)c1nc(N)nc(N(c2ccccc2)c2ccccc2)n1	0.7	1	14	-1.5	2.2	i	4.2	1	-2	-0.2
Cc1ccc(NC(=O)NCCN2C(=O)C3C4C=CC(C4)C3C2=O)cc1 (centres undefined)	0.74	15	9	-0.4	-4.1	i	5.1	-5	-4	0.8
O=C(Cn1c(O)c(N=NC(=O)c2ccncc2)c2ccccc21)Nc1ccccc1	0.73	19	5	-0.1	-6.1	i	1.4	0	-6	0.8
O=C(O)C1CCN(Cc2cnn(-c3ccccc3)c2-n2cccc2)CC1	0.66	.	.	.	.	.	0.5	-1	-11	0.2
NC(=O)c1ccc(SCC(=O)OCC(=O)NCc2ccco2)c([N+](=O)[O-])c1	0.68	7	7	4.6	-1.1	i	4.8	-5	-1	-2.1
CC(C)C(=O)NNC(=O)CSc1nnc(-c2ccccc2)c(-c2ccccc2)n1	0.65	-3	-5	-1.0	0.2	i	1.5	-9	0	-1.4
CCN(Cc1ccccc1)C(c1cc2cc(C)ccc2[nH]c1=O)c1nnnn1CCOC (centres undefined)	0.69	.	.	.	.	.	2.3	-6	-2	-1.1
CC(=O)OC(C(=O)Nc1nccs1)c1ccccc1 (centres undefined)	0.64	3	2	-1.4	0.1	i	3.5	-3	-5	1.5
Cc1cc(SCc2c(F)cccc2Cl)nc(=O)[nH]1	0.7	-16	1	-0.5	-7.2	i	1.9	.	8	0.5
C=CCn1nnnc1SCC(=O)Nc1cccc(OC)c1	0.7	.	.	.	.	.	-1.9	-2	-5	-0.2
COc1ccccc1OCCNC(=O)Nc1ccc(Br)cc1	0.63	3	15	5.5	0.2	i	5.5	6	14	1.1
COc1ccc(S(=O)(=O)N2CCC(C(=O)OCC(=O)c3ccccc3)CC2)cc1[N+](=O)[O-]	0.68	16	4	12	-45	i	6.0	3	2	0.0
COC(=O)c1c(C(=O)OC)c(-c2ccc(Cl)c(Cl)c2)n2c1CCC2	0.7	-29*	-6.1*	-0.3*	8.7	i	4.5	9	14	1.0
Cc1cc(C)c2cc(C)c(SCC(=O)NCc3ccco3)nc2c1	0.67	-25	-37	-7.1	0.8	i	2.9	-3	14	1.8
CC1(C(=O)N/N=C/c2ccc3c(c2)OCO3)CC1(Br)Br (centres undefined)	.	-3	-15	2.0	2.0	i	.	1	-8	-0.7
O=C(Cn1nc(C(=O)O)c2ccccc2c1=O)Nc1ccc(F)cc1	0.66	-2	3	-2.3	-0.2	i	0.1	1	-1	0.4
N=c1ccn(CC(=O)c2ccc(-c3ccccc3)cc2)cc1	0.6	-41*	-29*	-2.1*	1.6	.	-2.0	134*	58*	-1.3
COc1ccc(NC(=O)CN2CCN(c3ccccn3)CC2)cc1Cl	0.67	3	-1	4.1	-9.6	i	7.4	.	7	0.5
CCOC(=O)CNc1nnc(SCC(=O)OCC)[nH]c1=O	0.68	.	.	.	.	.	6.6	-14	-5	0.2
CCN(CC(=O)Nc1ccc(NC(C)=O)cc1)C(=O)CSC(=S)N1CCCC1	0.67	3	0	-2.1	-1.8	i	3.6	3	.	-0.2
Cc1ccc(NC(=O)Cc2nnc(SCC(=O)Nc3nncs3)n2C)c(C)c1	0.66	1	12	1.1	-1.3	i	-0.1	-5	4	0.2
O=C(CN1C(=O)CSc2ccc(S(=O)(=O)N3CCCCC3)cc21)NCc1ccccc1Cl	0.67	-4	-18	0.8	2.9	i	4.7	7	10	-0.2
CC(C(=O)NCC1CCCCC1)N1CCN(S(=O)(=O)c2ccccc2F)CC1 (centres undefined)	0.72	-19	-25	-2.5	-0.6	i	-1.2	-5	6	-0.3
O=C(NCC1CCCO1)/C(=C\c1cccc([N+](=O)[O-])c1)NC(=O)c1ccccc1 (centres undefined)	0.65	10	7	-2.3	-0.9	i	1.3	0	-11	0.1
COc1ccc(C2=Nn3c(nnc3-c3ccccc3OC)SC2)cc1OCC1CC1	0.69	-27*	-4.5*	-5.3*	2.7	i	0.7	32	.	0.2
CN(CC(=O)N1CCc2[nH]c3ccc(F)cc3c2C1)CC1OCCO1	0.73	.	.	.	.	.	0.9	-6	9	0.3
COc1cc(/C=C2\S/C(=N/S(=O)(=O)Cc3ccccc3)NC2=O)c([N+](=O)[O-])cc1OC	0.69	-13	-8	-2.1	-1.1	i	19	-6	1	-0.5
COCCCNC(=O)c1ccc(CS(=O)(=O)c2cccc(C(F)(F)F)c2)o1	0.67	5	13	1.9	-10	i	3.1	-2	-9	-0.5
OCCn1ccc(-c2ccccc2OCc2ccc(F)cc2)n1	0.66	1	-6	1.9	-1.3	i	1.7	-1	0	-0.8
COc1ccc(NC(=O)NNS(=O)(=O)c2ccc(Br)cc2)cc1	0.65	6	5	-1.8	-4.7	i	2.3	-8	7	-0.3

Assay outcomes as filed in PubChem.
